Source: PubChem
NPYLR7 agonist = mosquito NPYLR7 agonism | HEK293T NPYLR7/Galpha15, GCaMP6s calcium fluorescence | activation, % at 10 µM | 270,000 compounds, 0.15% hits | AID 1259423; in the data active means activation above about 40%;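 further: 0% = vehicle and 100% = reference agonist at the receptor; some compounds past the cut are filed as inactive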
NPYLR7 agonist max-min = recorded beside NPYLR7 agonist, whose call it bears; activation, %; measured here: Max-Min RFU normalised activation; some inactives read as strong as hits;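 span of the calcium signal over five minutes; 0% = vehicle and 100% = native peptide agonist; compound fluorescence can raise it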
Numbers without * were called inactive; & = joins results of further samples.

Preview (two entries):
SMILES	NPYLR7 agonist	NPYLR7 agonist max-min
NCCc1ccccn1	-3	-5
COC(=O)C1C(=N)OC(c2ccccc2)=C(C(C)=O)C12C(=O)Nc1ccc(Br)cc12 (configuration not stated)	4	13

The list itself, from the first entry:
SMILES	NPYLR7 agonist	NPYLR7 agonist max-min
NCCc1ccccn1	-3	-5
COC(=O)C1C(=N)OC(c2ccccc2)=C(C(C)=O)C12C(=O)Nc1ccc(Br)cc12 (configuration not stated)	4	13
c1ccc2sc(N3CCNCC3)nc2c1	-1	-4
COc1cc(C2c3c(c4ccccc4oc3=O)OC(=N)C2C#N)cc(OC)c1O (configuration not stated)	-2	-11
CC[C@H]1C2C[C@H]3[C@@H]4N(C)c5ccccc5C45C[C@H](C2[C@H]5O)N3[C@@H]1O (some centres not stated)	-4	-11
COc1ccccc1OCC(=O)N1CCCN(CC2CC2)C(C(C)C)C1 (configuration not stated)	1	-3
CCc1ccc(-n2c(-c3ccc(OC)cc3OC)nc3ccccc3c2=O)cc1	4	-1
CCC(=O)Nc1ccc(N2CCN(C)CC2)cc1C	1	0
CN(C)C(CNCc1ccc2c(c1)OCCO2)c1cccc(F)c1 (configuration not stated)	8	5
O=c1[nH]c2ccccc2cc1C1NCCc2[nH]cnc21 (configuration not stated)	9	5
Cc1cc(C=C(C#N)C#N)c(C)[nH]1	2	0
Ic1ccccc1CNC1C2CCN(CC2)C1C(c1ccccc1)c1ccccc1 (configuration not stated)	3	-9
C[C@]12CCC(=O)C=C1CC[C@@H]1[C@@H]2CC[C@@]2(C)[C@H]1CC[C@]2(C)O	-13	-17
CCOc1ccc(NC(=O)C23CC4CC(CC(C4)C2)C3)cc1	-7	-11
Cc1ccc(CNC(=O)c2sc3nc4c(cc3c2N)N2CCC4CC2)cc1	-1	-2
O=C(c1nn(CCCOc2ccccc2)c2ccccc12)N1CCN(C(=O)C2CCCO2)CC1 (configuration not stated)	14	15
[N-]=[N+]=CC(=O)OCC(N)C(=O)O (configuration not stated)	-3	-8
CC1CN(O)C2CCc3c(no[n+]3[O-])C12O (configuration not stated)	0	-3
Cc1cccc(-n2c(Cl)nc3ccccc3c2=O)c1C	6	4
O=C(NCCN1CCCC1)c1cn(CC2CCCO2)cc(C(=O)NC2CCCCCCC2)c1=O (configuration not stated)	16	10
Oc1ccc2c3c1O[C@H]1[C@@H](O)CC[C@@]4(O)[C@@H](C2)N(CC2CCC2)CC[C@]314	-1	-4
N=c1sccn1Cc1ccc(Cl)cc1Cl	2	0
NC1=NC(=O)N2CC12 (configuration not stated)	-17	-9
O=C(NCCc1ccccc1)C(C1CCCC1)N1CCN(C(=O)COc2ccc(Cl)cc2)CC1 (configuration not stated)	-3	0
O[C@@]1(Cn2ccc3cccnc32)CCCN2CCCC[C@@H]21	-3	-8
SMILES	NPYLR7 agonist	NPYLR7 agonist max-min
CCCCS(=O)(=O)N1CCN(CCOC(c2ccccc2)c2cccc(C(F)(F)F)c2)CC1 (configuration not stated)	31	33
CCc1ccccc1-n1c(=S)[nH]c2ccccc2c1=O	-4	-10
Cc1cc(C(=O)NC(C)C2CC3CCC2C3)c(C)n1C1CC1 (configuration not stated)	5	2
C/C=C1/C[N+]2(C)CCC34C(=C(C=O)[C@H]1C[C@@H]32)Nc1ccccc14 (some centres not stated)	-1	-2
C[C@H](N)[C@H](O)c1ccc(O)c(O)c1	24&35	13&35
CCSc1nc(NC(C)C)c2cnn(CCN)c2n1	-2	-5
O=C1NC(=O)N(c2ccc(Cl)cc2)C(=O)/C1=C/C=C/c1ccccc1	-4	-8
N#Cc1ccc(NC(=O)COC(=O)c2cc3c(s2)CCC3)cc1Cl	-4	-5
COC(=O)c1cc2c(cn1)[nH]c1ccccc12	0	-25
CC(C)(C)c1ccc(Cn2nc(C(=O)NCc3ccco3)c3ccccc32)cc1	16	18
CCCN(CCC)C1CCc2cccc(O)c2C1 (configuration not stated)	-3	-26
CCSc1ncc(CN2C[C@H]3CC=CC[C@H]3C2)cn1	10	8
CC(C(=O)NCC1CCCCC1)N1CC=C(c2ccccc2)CC1 (configuration not stated)	-1	-3
CCCc1cnc(N2CCN3CCN(C)CC3C2)nc1 (configuration not stated)	-1	5
Cc1ccc(NC2=NC(C)(C)CS2)cc1Cl	2	1
O=P(O)(O)Cc1c(Cl)cccc1Cl	-4	-7
CCN(CC)P1(=S)OC(c2cccs2)=Nc2cc(N(C)C)ccc21 (configuration not stated)	2&6	1&5
O=C(NCc1ccccc1)c1ccc(Br)c(S(=O)(=O)N2CCCCC2)c1	8	6
Cc1ccc(NP(C(C)C)C(C)C)nc1	-1	16
COc1ccc(C(=O)C2CCCN(Cc3cnc(N)nc3)C2)c(OC)c1 (configuration not stated)	1	-1
COCC#CCN1CCC(C)CC1c1ccco1 (configuration not stated)	-5	-8
Oc1ccccc1N1CCN(CCc2ccccn2)CC1	0	2
CN1CCN(c2ccc(CO)cc2F)CC1	-3	-6
CC1(C)C(C(Cl)Cl)C2(Cl)C(Cl)C(Cl)C1(Cl)C2(Cl)Cl (configuration not stated)	-9	-13
COc1cc(C=C2C(=O)N(C)C(=O)N(C)C2=O)ccc1Oc1ccc([N+](=O)[O-])cc1C#N	-5	-10

Fetched by structure from the list above:
SMILES	NPYLR7 agonist	NPYLR7 agonist max-min
COC(=O)C1C(=N)OC(c2ccccc2)=C(C(C)=O)C12C(=O)Nc1ccc(Br)cc12 (configuration not stated)	4	13
CCc1ccc(-n2c(-c3ccc(OC)cc3OC)nc3ccccc3c2=O)cc1	4	-1
C[C@]12CCC(=O)C=C1CC[C@@H]1[C@@H]2CC[C@@]2(C)[C@H]1CC[C@]2(C)O	-13	-17
CCc1ccccc1-n1c(=S)[nH]c2ccccc2c1=O	-4	-10
CCCCS(=O)(=O)N1CCN(CCOC(c2ccccc2)c2cccc(C(F)(F)F)c2)CC1 (configuration not stated)	31	33
CC1CN(O)C2CCc3c(no[n+]3[O-])C12O (configuration not stated)	0	-3

Following part:
SMILES	NPYLR7 agonist	NPYLR7 agonist max-min
O=[N+]([O-])c1cc([N+](=O)[O-])cc(C(F)(F)F)c1	9	9
c1cnc2c(c1)CN(Cc1cc3n(n1)CCCNC3)CC2	-2	24
N#CCCN(CC(=O)Nc1ccc(C#N)c(Cl)c1)C1CCOCC1	13	8
CCOC(=O)c1c(C)c(P(=S)(N2CCOCC2)N2CCOCC2)n(C)c1C	2	6
O=C1CCC[C@H]2[C@H]3CCCN4CCCC(=CN12)[C@@H]34	7	7
CCc1ccccc1NC(=O)c1cccn(Cc2ccc(F)cc2)c1=O	13	4
N#Cc1ccc(C(=O)N2C[C@@H]3C[C@H](C2)c2c(-c4cccc(C#N)c4)ccc(=O)n2C3)cc1	-7	-15
CC1OP(=S)(C(Nc2ccccc2)c2ccccc2)OC1C (configuration not stated)	6	4
CCN(CC)P1(=S)c2c(C)nn(-c3ccccc3)c2N=C(c2ccccc2F)N1C (configuration not stated)	-1	-3
Cc1ccc2[nH]cc(CN3C[C@H](N(C)C)C[C@H]3CO)c2c1	5	3
S=C(NC1CCCCC1)N1CCC(c2cnc[nH]2)CC1	1	-23
CCN(CCCl)CCOC(C)=O	2	-32
Cc1cccc(NC(=O)c2cc3cccnc3n(Cc3ccccc3F)c2=O)c1	17	9
O=P(c1ccccc1)(c1nc2ccccc2s1)N1CCOCC1 (configuration not stated)	-1	23
c1cc2c(c(-c3cc(N4CCCC4)cnn3)c1)CCNC2	1	-6
NC(=O)c1ccsc1NC(=O)CNC1(c2ccc(Cl)cc2)CCCCC1	14	10
CSc1ccccc1C(=O)C1CCCN(Cc2cc(C(C)C)n[nH]2)C1 (configuration not stated)	-3	-17
O=Cc1cn(Cc2nc(C(c3ccccc3)c3ccccc3)no2)c2ccccc12	2	0
NC1N=C(c2ccccc2)c2ccccc2NC1=O (configuration not stated)	3	2
CCOCN(C(=O)CCl)c1c(C)cccc1CC	-6	-12
O=C(CN1CCN(C(=O)Cc2ccc3ccccc3c2)CC1)NC1CC1	0	0
CC(=O)NS(=O)(=O)c1ccc(NC(=O)c2cccn(Cc3ccc(F)cc3)c2=O)cc1	1	-2
CCCCN(C)C1CCN(CCC)CC1	-1	-7
CCCSc1ncccc1C(=O)N1CCN(CCOC(c2ccccc2)c2ccccc2)CC1	-4	-1
C#C[C@H]1CN2CC[C@H]1C[C@@H]2CNCc1cc2ccccc2o1	-11	-14
SMILES	NPYLR7 agonist	NPYLR7 agonist max-min
CCOc1ccccc1OCC(=O)N1CCN(C(C)COC)CC1 (configuration not stated)	9	7
COc1cc2c(cc1-c1cc3cc4ccoc4cc3oc1=O)OCO2	10	3
CN(C)CCN(C(=O)Cc1ccc(F)cc1)c1nc2ccc(S(C)(=O)=O)cc2s1	-15	-22
CCCn1c(C)c(C(=O)c2ccc3ccccc3c2)c2ccccc21	4	-2
Cc1ccc(/C=C2\C(=O)NC(=O)N(c3ccccc3)C2=O)o1	-8	-17
COCCNC(=O)CN1C(=O)CSC(c2ccsc2)c2c(-c3ccccc3)nn(-c3cccc(C)c3C)c21 (configuration not stated)	21	6
N#C/C(=C\c1cccc(O)c1)C(=O)O	-1	-3
CC(C)NC(=O)c1cc(N2CCN3CCCC3C2)ccn1 (configuration not stated)	10	8
COc1cccc(CC(C)NCCN(C)S(C)(=O)=O)c1 (configuration not stated)	2	13
C=C(C)CCC(C)NCc1nn(C)c2ccc(C)cc12 (configuration not stated)	25	10
COC(=O)C1=C(C(=O)OC)SC2(S1)C(C(=O)OC)=C(C(=O)OC)Sc1ccccc12	5	8
COc1ccc(-c2nc(CC(=O)N3CCN(Cc4cc(=O)c(OCc5cccc(F)c5)co4)CC3)c(C)o2)cc1	1	2
CCOC(=O)C1C(=N)Oc2cc(C)n(C)c(=O)c2C12C(=O)N(Cc1ccccc1)c1ccccc12 (configuration not stated)	-3	-7
O=S(=O)(c1ccc(Cl)cc1Cl)N1CCN(CCOC(c2ccccc2)c2cccc(C(F)(F)F)c2)CC1 (configuration not stated)	5	1
CN1CCC2(CCN(CCN)CC2)C1	24	15
CC(CN)CC(=O)O (configuration not stated)	1	1
O[C@H]1C[C@@H]2C[C@H](c3ccccn3)OC[C@]2(O)[C@@H]1N1CC=CCC1	10	16
NC(=NCCC[C@H](N)C(=O)O)N[N+](=O)[O-]	1	-32
O=C1Nc2ccccc2C12CCN(Cc1noc(C3CCCO3)n1)CC2 (configuration not stated)	16	7
O=C(Cc1cccs1)N1CCN(CC(OCc2ccc(C(F)(F)F)cc2)c2ccc(Cl)cc2)CC1 (configuration not stated)	1	0
CC(C)n1ccnc1CN1C[C@H]2CC=CC[C@H]2C1	10	6
CN1CCN(c2ccc([N+](=O)[O-])cc2)CC1	4	6
COC(=O)CN(C)CP(C)(=O)OC(C)C (configuration not stated)	-9	-16
O=C(Nc1ncc([N+](=O)[O-])s1)c1cccn(Cc2ccccc2)c1=O	17	11
O[C@@H]1CC[C@H]2C[C@@H]1[C@@H](Oc1ccccn1)CN2	-2	8
SMILES	NPYLR7 agonist	NPYLR7 agonist max-min
CN(c1ccccc1)S(=O)(=O)c1ccc(Cn2nc(C(=O)NOCc3ccccc3)c3ccccc32)cc1	0	23
CC1(C)C2([N+](=O)[O-])CN3CN(C2)CC1([N+](=O)[O-])C3	24	14
COc1ccc(-n2c(=S)[nH]c3cc(O)ccc3c2=O)cc1OC	3	1
Cc1nc(N(C)C)ncc1C(=O)N1CCOC2(CNCCOC2)C1 (configuration not stated)	11	2
CC(C)c1noc(C(C)N2CCN(C(=O)Cc3ccc(F)cc3)CC2)n1 (configuration not stated)	10	4
CC(C)(C)c1nn(C(C)(C)C)c2c1C(c1cccc(F)c1)SCC(=O)N2CC(=O)NCC1CCCO1 (configuration not stated)	2	-4
c1cc(C[N+]23CN4CN(CN(C4)C2)C3)cs1	-8	-9
N#CC1(c2ccccc2)CCN(C(=O)C2CCCCC2C(=O)NCc2ccco2)CC1 (configuration not stated)	-4	-6
O=C(NCCCN1CCCC1=O)C(C1CCCC1)N1CCN(C(=O)COc2ccc(Cl)cc2)CC1 (configuration not stated)	-4	0
CC(C)(C)[C@]1(O)C[C@@H]2OC(=O)C[C@@]23C(=O)O[C@@H]2OC(=O)[C@H](O)C213 (some centres not stated)	-6	-12
CCOC(=O)[C@H]1CN(C(=O)COc2ccccc2)[C@]2(C)C(=O)N(C)c3ccccc3[C@H]12	-2	10
O=c1[nH]c(=S)[nH]c(O)c1N=Nc1ccc2c(c1)OCO2	-1	-4

Complete entries from above. Values in the order: NPYLR7 agonist	NPYLR7 agonist max-min
CC(C)c1noc(C(C)N2CCN(C(=O)Cc3ccc(F)cc3)CC2)n1 (configuration not stated) is entered as 10	4
O=C(NCCCN1CCCC1=O)C(C1CCCC1)N1CCN(C(=O)COc2ccc(Cl)cc2)CC1 (configuration not stated) is entered as -4	0
c1cc(C[N+]23CN4CN(CN(C4)C2)C3)cs1 is entered as -8	-9

An excerpt from above in order of heavy-atom count, rising:
SMILES	NPYLR7 agonist	NPYLR7 agonist max-min
O=c1[nH]c(=S)[nH]c(O)c1N=Nc1ccc2c(c1)OCO2	-1	-4
COc1ccc(-n2c(=S)[nH]c3cc(O)ccc3c2=O)cc1OC	3	1
Cc1nc(N(C)C)ncc1C(=O)N1CCOC2(CNCCOC2)C1 (configuration not stated)	11	2
N#CC1(c2ccccc2)CCN(C(=O)C2CCCCC2C(=O)NCc2ccco2)CC1 (configuration not stated)	-4	-6
CC(C)(C)c1nn(C(C)(C)C)c2c1C(c1cccc(F)c1)SCC(=O)N2CC(=O)NCC1CCCO1 (configuration not stated)	2	-4
CN(c1ccccc1)S(=O)(=O)c1ccc(Cn2nc(C(=O)NOCc3ccccc3)c3ccccc32)cc1	0	23

Not all compounds are listed (hit frequency here may not be typical).
